High-throughput results: PubChem BioAssay, several laboratories
Beta cell apopt = blocks beta cell apoptosis. INS-1E cytokine-induced death, ATP luminescence, 48 h; percent of positive-control rescue, neutral wells zero. protection from apoptosis, % (concentration not given with the values). 300,000 compounds, 0.8% hits. AID 435005;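 active = all replicates at 75% or more, or half of them and the mean; inconclusive = half reach 75% but not the mean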;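 note: 0% = cytokine-treated negative control wells and 100% = positive control rescue; higher means more ATP so stronger rescue from cytokine killing; wells of about 40 µL received 100 nL stock; the first replicate is given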
T cruzi repl = blocks replication of Trypanosoma cruzi | T. cruzi beta-gal in NIH3T3, luminescence, 90 h | inhibition, % (no concentration beside the values) | 300,000 compounds, 1.4% hits | AID 1885;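 active = mean inhibition across valid replicates above about 55%, limit read from the data; inconclusive = mean below that limit but half or more replicates reach it; inactive = mean below it, under half of replicates reach it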;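 note: signal also drops with host cell toxicity which is not excluded here; 0% = plate median of DMSO wells and 100% = zero luminescence signal; higher percent means less beta-gal luminescence so fewer parasites; stock transfer was 50 nL into about 50 µL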
MLL AF4-AF9 inh = blocks AF4 peptide binding to human AF9 | P42568 | AlphaScreen, biotin-AF4 peptide binding to FLAG-AF9 | inhibition, % at 10 µM | 350,000 compounds, 0.47% hits | AID 651704;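 active = every replicate reaching a set inhibition limit, whatever the replicate mean, cut at about 25% in these data; inconclusive = mean inhibition reaches that limit but some replicates miss it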;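 note: 0% = plate neutral control median and 100% = total signal loss; the record names both 10 and 1 µM as test concentration; the first replicate is given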
Target sequence (P42568 whole entry, looked up): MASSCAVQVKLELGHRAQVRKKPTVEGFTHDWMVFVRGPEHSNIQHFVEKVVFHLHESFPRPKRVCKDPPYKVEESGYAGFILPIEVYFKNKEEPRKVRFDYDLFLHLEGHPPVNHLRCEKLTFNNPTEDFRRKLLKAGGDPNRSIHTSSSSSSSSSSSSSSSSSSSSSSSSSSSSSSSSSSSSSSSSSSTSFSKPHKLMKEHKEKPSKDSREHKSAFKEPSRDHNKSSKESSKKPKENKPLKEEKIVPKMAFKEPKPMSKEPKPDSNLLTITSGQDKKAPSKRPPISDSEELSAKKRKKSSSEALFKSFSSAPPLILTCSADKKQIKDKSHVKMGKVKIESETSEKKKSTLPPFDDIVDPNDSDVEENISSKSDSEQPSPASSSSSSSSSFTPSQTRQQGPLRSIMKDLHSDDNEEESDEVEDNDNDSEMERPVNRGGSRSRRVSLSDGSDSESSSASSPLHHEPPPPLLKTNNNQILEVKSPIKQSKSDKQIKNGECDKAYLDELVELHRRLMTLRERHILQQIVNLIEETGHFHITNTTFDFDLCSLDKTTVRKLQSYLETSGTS
Calb FLC = C. albicans growth modulation with fluconazole; C. albicans CaCi-2 (fluconazole-resistant clinical isolate) + fluconazole, Alamar Blue growth, 48 h; growth inhibition, % (test concentration not listed); 300,000 compounds, 0.57% hits;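 active = most replicates above 75%; inconclusive = exactly half above 75%; inactive = most below 75%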;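 note: all wells also contain fluconazole at 8 µg/ml as a sub-toxic cotreatment; 0% = median of DMSO wells and 100% = median of geldanamycin control wells; wells of about 8 µL received 7.5 nL stock; the first replicate is given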
LANA-H2B inh = blocks KSHV LANA binding to histone H2A/H2B. Q9QR71. cell-free LANA-H2A/H2B peptide, fluorescence polarization. inhibition, % (no concentration beside the values). 320,000 compounds, 0.6% hits. AID 2629; in the data active = inhibition mostly above about 10%, no sharp cut-off; inactive = mostly below about 6.7%;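 note: stock transfer was 7.5 nL into about 10 µL; 0% = median of vehicle wells and 100% = median of positive control wells; one replicate is shown; the record names a cut of 25% in any replicate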
RanGTP-Imp inh = disruptors of Ran-importin-beta complex formation – biochemical, FRET, CFP-Ran, YFP-importin-beta, homogeneous, primary screen; cell-free CFP-Ran/YFP-importin-beta FRET ratio; inhibition, % (concentration not given with the values); 300,000 compounds, 1.1% hits;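 active = most replicates above 15%; inconclusive = exactly half above 15%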;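 note: 0% = DMSO wells and 100% = Ran loaded with GDP instead of GTP; wells of about 40 µL received 100 nL stock; the first replicate is given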
Vif A3G = HIV-1 Vif–A3G interaction blockers – biochemical, TR-FRET, GST-Vif 1-94, biotin-A3G peptide, dose response retest, primary screen (AID 1117319) | TR-FRET GST-Vif / biotin-A3G peptide binding; higher % means a stronger effect; test concentration not given here; strong numbers were not always called active | 260,000 compounds, 0.57% hits | inhibition, %; hits with a dose series show IC50 in µM;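 active = above the screen mean plus three standard deviations and confirmed in dose response; inconclusive = results disagree or hit not tested in dose response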;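 note: Vif residues 1-94 fused to GST binding biotinylated APOBEC3G peptide 110-148; 0% = full assay without inhibitor and 100% = GST in place of GST-Vif; retest series ran down from 100 µM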
Bfl-1 A1 inh = inhibitors of the anti-apoptotic protein A1, read as caspase activation; 330,000 compounds, 0.066% hits; AID 2462; MEF A1-2A-BIM cells, Caspase-Glo 3/7 luminescence, 3 h; percent of clofoctol response, vehicle zero; caspase activation, % (concentration not given with the values);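 active = over half of replicate activation scores above 10%, or exactly half above 10 with the replicate mean above 10; inconclusive = replicate mean below 10 yet half the replicates above 10; inactive = over half of replicates below 10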;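 note: wells of about 30 µL received 50 nL stock; many hits fall short of the cut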
* marks the source's active call; other numbers are inactive results; ? = inconclusive; / = no result given.

SMILES | Beta cell apopt | T cruzi repl | MLL AF4-AF9 inh | Calb FLC | LANA-H2B inh | RanGTP-Imp inh | Vif A3G | Bfl-1 A1 inh
CC1(C)Cc2c(sc(NC(=O)c3ccccc3)c2C(=O)O)CO1 | 4 | -8 | -4.3 | -5 | -1.4 | -12 | / | -1.9
CNC(=S)N/N=C/c1c(C)nn(-c2ccccc2)c1Cl | -5 | -18 | / | 7 | -0.3 | 1.9 | -3% | 0.7
CC1=CC(C)(C)N(C(=O)CSc2ncn[nH]2)c2ccc(C)cc21 | -6 | -1 | / | -8 | -1.3 | 0.6 | -6% | 0.3
S=c1[nH]nc(-c2ccc(Cl)cc2)n1CC1CCCO1 (stereo not drawn) | 9 | 6 | 6.3 | 15 | -3.2 | 0.7 | 5% | 0.0
CC(C)N1CCN(c2ccc(OC[C@H]3CO[C@](Cn4cncn4)(c4ccc(Cl)cc4Cl)O3)cc2)CC1 | -1 | / | 36* | / | 0.7 | / | / | 0.1
Cc1ccccc1C1C(C#N)=C2N=C(N)c3ccccc3N2C2=C1C(=O)CCC2 (stereo not drawn) | 0 | 18 | 1.6 | 1 | -6.3 | ? | 19% | -0.1
CCOc1cc(NC(=O)c2ccccn2)c(OCC)cc1NC(=O)c1cccc(C)c1 | -2 | 9 | -1.4 | -8 | 2.7 | -5.2 | 2% | -0.6
NC(=O)CC(NC(=O)Cc1cccc2ccccc12)c1ccc(NCc2cc(F)ccc2F)c([N+](=O)[O-])c1 (stereo not drawn) | / | -19 | -0.9 | 4 | -3.2 | -0.4 | / | 0.7
CCN1CCN(c2nc3c(C)cccn3c(=O)c2/C=C(\C#N)S(=O)(=O)c2ccccc2)CC1 | 3 | 13 | / | -10 | 6.0 | -28 | 9% | 0.6
c1ccc2[nH]c(CSc3nnc(-c4ccncc4)o3)nc2c1 | -1 | -7 | / | 5 | -4.8 | 6.0 | 22% | -0.2
O=C(O)c1cccc(NC(=O)C23CC4CC(C2)CC(n2cnc(Cl)n2)(C4)C3)c1 | -7 | -22 | / | 3 | 7.0 | 4.5 | -4% | 1.0
COc1ccc(NC(=O)C(c2ccccc2)N(C)C(=O)c2cnccn2)cc1 (stereo not drawn) | -7 | 6 | / | 25 | -1.6 | 4.1 | 17% | 1.6
COc1ccc(CCC(=O)OCC(=O)Nc2c(C)nn(-c3ccccc3)c2C)cc1 | 3 | 5 | 5.1 | 0 | -1.3 | ? | -2% | ?
CC(C)CNS(=O)(=O)c1ccc(NC(=O)Cn2nc(-c3ccc(F)cc3)ccc2=O)cc1 | -13 | -5 | / | -2 | -5.6 | 2.9 | / | 1.9
C/C(CC(=O)Nc1ccc2c(c1)OCCO2)=N\NC(=O)c1ccc([N+](=O)[O-])cc1Cl | 16 | 2 | -0.4 | 11 | -7.3 | 3.4 | / | -0.7
O=C(Cn1c2ccccc2c2nc3n(c(=O)c21)CCCS3)Nc1ccccc1 | 1 | 19 | -0.5 | -8 | 3.3 | -0.3 | -26% | 1.6
Cc1cccc(C(=O)NNC(=O)c2cccc([N+](=O)[O-])c2)c1 | -5 | -11 | -0.8 | 3 | -0.3 | 7.3 | -5% | 0.0
CN(C)c1ccc(/C=N/NC(N)=S)cc1[N+](=O)[O-] | 0 | 20 | -7.0 | 15 | 25* | 0.2 | 7% | 0.6
Cc1ccc(-c2ccc(=O)n(CC(=O)NCCN(CC(C)C)CC(C)C)n2)cc1 | 3 | -10 | -1.3 | -7 | -0.9 | 2.2 | 7% | 0.5
N#Cc1cnn2c(C(F)(F)F)c3c(nc12)CCCC3 | 2 | -8 | -0.8 | 18 | 2.9 | -5.5 | / | 0.3
N=c1n(CCN2CCCC2)c2ccccc2n1CC(O)c1ccco1 (stereo not drawn) | -10 | 2 | / | 0 | 1.3 | -3.1 | 5% | -1.0
CCn1c(SCC(=O)NCc2ccc3c(c2)OCO3)nnc1-c1ccco1 | -1 | -3 | -0.2 | -33 | -1.7 | 1.5 | / | 0.5
COc1ccc(-n2c(C)cc(C(=O)CN3C(=O)C(=O)N(Cc4ccccc4)C3=O)c2C)cc1 | 3 | 16 | 0.2 | 1 | -2.4 | 1.0 | -1% | -0.5
COC(=O)C1=C(C)N(c2ccc(C)cc2)/C(=C/c2cccs2)C1=O | 11 | 29 | / | 31 | -1.9 | 0.9 | -2% | 0.5
CN(Cc1ccccc1)C(=O)COC(=O)c1ccc[nH]c1=O | -3 | / | -8.6 | / | -3.8 | / | -3% | 0.2
C=CCOC(=O)C1=C[C@H](c2coc3ccccc3c2=O)[C@@H](CCCO)[C@H](OCC)O1 | 0 | 1 | 1.7 | 4 | -0.7 | -0.2 | -1% | 0.6
CC(=O)Nc1ccc(S(=O)(=O)NCCC(=O)Nc2ccc(C)cn2)cc1 | -4 | -6 | -0.6 | -18 | 4.6 | 2.8 | -3% | -0.1
Cc1cc(C)nc(/N=C(\N)Nc2ccc([N+](=O)[O-])cc2)n1 | 1 | -12 | / | 7 | 8.0 | -0.9 | / | 0.0
O=C(CCN1C(=O)[C@@H]2Cc3ccccc3CN2C1=O)NCc1ccccc1Cl | -5 | 1 | 1.1 | -3 | 5.1 | -2.1 | / | 0.1
CC(=O)c1cc(-c2ccccc2)n(CCC(=O)NC(C)(C)C)c1C | 2 | 5 | / | -5 | 0.2 | 2.3 | 4% | 0.0
CCNC(=O)Nc1nc2ccccc2s1 | -1 | -6 | -2.3 | ? | -2.7 | 5.2 | -5% | 0.3
Cc1cccn2c(=O)nc(SCC(=O)NCc3ccccc3)nc12 | / | -12 | -0.9 | -1 | 1.5 | -0.2 | -5% | -0.7
O=C(Nc1ccc(N2CCOCC2)cc1)Nc1ccc(Cl)c(Cl)c1 | 9 | 31 | / | 1 | 5.8 | 1.1 | 7% | -1.8
COc1cccc(N2CCN(C(=O)c3ccc(=O)oc3)CC2C)c1 (stereo not drawn) | -6 | -8 | / | -5 | 1.0 | 6.3 | 26% | 0.3
NS(=O)(=O)c1ccc(CCNC(=S)NC2CCCCC2)cc1 | 6 | -5 | -1.7 | -3 | -4.3 | -0.1 | 23% | -6.9
CCOCCCNC(=O)/C(C#N)=C/c1ccc(C)o1 | -7 | 2 | -3.8 | 1 | -2.3 | 4.2 | 8% | 0.2
CC(NC(=O)c1noc2c1CCCCC2)c1ccccc1 (stereo not drawn) | 0 | -4 | -4.3 | -8 | 0.3 | -2.7 | ? | 0.6
O=C(NCc1ccc(Cl)cc1)C1CCC(=O)N(C2CCCCCC2)C1 (stereo not drawn) | / | -4 | -1.2 | -10 | -9.8 | 7.9 | -4% | 0.4
O=C1N(c2ccccc2)C(c2ccccc2)N2CCCN12 (stereo not drawn) | -10 | -4 | 1.1 | 6 | 0.3 | -0.8 | / | -0.4
O=C(O)c1ccc(N2C(=O)CSC2=S)cc1 | -2 | -30 | -2.5 | 4 | 1.0 | -0.5 | / | 0.4

An excerpt from above in order of the RanGTP-Imp inh value, falling.
canonical_smiles	MLL AF4-AF9 inh	LANA-H2B inh	RanGTP-Imp inh	Vif A3G
CC(C)CNS(=O)(=O)c1ccc(NC(=O)Cn2nc(-c3ccc(F)cc3)ccc2=O)cc1	/	-5.6	2.9	/
CCn1c(SCC(=O)NCc2ccc3c(c2)OCO3)nnc1-c1ccco1	-0.2	-1.7	1.5	/
O=C(O)c1ccc(N2C(=O)CSC2=S)cc1	-2.5	1.0	-0.5	/

More results:
SMILES | Beta cell apopt | T cruzi repl | MLL AF4-AF9 inh | Calb FLC | LANA-H2B inh | RanGTP-Imp inh | Vif A3G | Bfl-1 A1 inh
Nc1c(C(=O)NCC2CCCO2)sc(=S)n1-c1ccccc1 (stereo not drawn) | -4 | -8 | / | 11 | 3.0 | 2.8 | 2% | 0.2
COc1ccc(NC(=O)CN2CCN(CC(=O)Nc3ccc(F)cc3)CC2)cc1Cl | 0 | 5 | 2.2 | -5 | 2.7 | -1.8 | -5% | 0.2
C/C(=N\NC(=O)C1COc2ccccc2O1)c1ccccn1 (stereo not drawn) | 34 | -19 | / | -7 | -5.0 | ? | / | 1.1
Cc1ccc(NC(=O)COc2ccc(Br)cc2C)cc1 | 3 | -7 | 0.4 | 7 | / | -1.9 | 0% | 1.4
COc1cccc(Cn2cc(/C=N/NC(=O)c3cc(O)cc(O)c3)c3ccccc32)c1 | 5 | -9 | 15 | 5 | -0.5 | 4.1 | / | 0.1
COCCN1C(=O)N[C@@H](c2ccccc2)C(C(C)=O)=C1C | -11 | / | 2.9 | / | -2.4 | / | 20% | 1.0
COc1ccc(NC(=O)CN2C(=O)CSc3ccc(S(=O)(=O)N4CCCC4)cc32)cc1OC | -6 | -13 | 5.8 | 27 | -0.8 | -1.8 | / | 2.4
CCn1nc(C)cc1-c1n[nH]c(=S)n1N | -2 | 21 | / | -6 | 6.9 | ? | 3% | 0.4
CCCCC(=O)NC1=NC(=O)C(C)(C)S1 | -4 | -3 | -41 | -8 | -8.2 | 1.5 | 8% | -0.1
CC(OC(=O)C1=COCCO1)C(=O)NC(C)c1ccc(Cl)cc1Cl (stereo not drawn) | -1 | -4 | -0.4 | -2 | 1.1 | 1.2 | 3% | 0.0
COc1ccc(NC(=O)C2CCN(C(=O)C3CC(=O)N(c4ccc(C)cc4)C3)CC2)cc1 (stereo not drawn) | / | -12 | 3.1 | -4 | / | -3.3 | 0% | /
CC1(C)CC2CC(C)(CN2C(=O)NC(=O)c2ccccc2)C1 (stereo not drawn) | -15 | -13 | 2.1 | 3 | / | -3.6 | -5% | 0.1
CC1(C)N=C(N)NC(Nc2ccccc2Cl)=N1 | / | -6 | 0.7 | -22 | 1.2 | 0.1 | 2% | -0.4
Cc1cc(=O)[nH]c2c1cnn2C(C)c1ccccc1 (stereo not drawn) | 0 | -5 | -1.1 | -1 | 0.1 | -1.6 | -7% | 1.5
COc1ccc(OCC(=O)Nc2cccc(NC(=O)COc3ccc(OC)cc3)n2)cc1 | -1 | -11 | / | 17 | -0.2 | -0.3 | 4% | -5.3
Cc1ccc(C(=O)N2CCN(CCNC(=O)C(=O)NCc3ccc(Cl)cc3)CC2)cc1 | -6 | 16 | 0.2 | 6 | -3.5 | 4.5 | -8% | -0.5
C=CCn1c(=O)/c(=C\c2ccccn2)s/c1=C(/C#N)C(=O)NCC1CCCO1 (stereo not drawn) | -4 | 1 | 0.1 | -9 | -5.2 | 2.4 | -9% | -0.9
O=C(C(Cl)Cl)N1CCN(Cc2ccc3c(c2)OCO3)CC1 | 2 | 11 | -12 | -15 | 10 | 1.7 | / | 0.7
O=C(Nc1ccccc1Br)C1CC(=O)N(c2ccc3c(c2)OCCO3)C1 (stereo not drawn) | / | -22 | -1.3 | -8 | 2.4 | 5.4 | 1% | -0.1
